Cruzain Triton: blocks cruzain activity in presence of Triton detergent. purified cruzain, Z-FR-AMC fluorescence, 0.01% Triton. Potency, µM, for inactives: max response, negative = inhibition, actives largely listed as inhibitors. actives 0.43% (n = 200,000);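 note: plate controls were neutral wells for no effect and buffer without enzyme for full effect; nearly all actives have a fitted effect of over 40% in size; top concentration of the series not given in the record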
Target sequence (P25779 123-467 limits assumed): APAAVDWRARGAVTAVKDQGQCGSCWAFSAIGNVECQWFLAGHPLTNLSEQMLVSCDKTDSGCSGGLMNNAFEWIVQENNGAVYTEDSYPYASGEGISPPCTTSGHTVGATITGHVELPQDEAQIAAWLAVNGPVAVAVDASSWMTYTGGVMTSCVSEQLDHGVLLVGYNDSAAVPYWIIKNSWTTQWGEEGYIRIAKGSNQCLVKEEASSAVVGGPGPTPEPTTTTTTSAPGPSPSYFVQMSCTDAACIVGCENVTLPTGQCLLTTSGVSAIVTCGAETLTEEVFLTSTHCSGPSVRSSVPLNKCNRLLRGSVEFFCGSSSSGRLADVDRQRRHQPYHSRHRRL
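Z-FR-AMC hydrolysis (2 uM substrate) by cruzain (1.5 nM) monitored kinetically at ex 360/em 450 nm after 15 min room-temperature compound exposure; 0.01% Triton X-100, pH 5.5, 5 mM DTT.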
Marburg entry inh: blocks Marburg virus binding to or entry into cells; Marburg virus pseudotyped entry inhibition, cell reporter; control for the full effect not named in the record; about a third of the inactives were read at about 46 µM; Potency, µM (doses to about 37.8 µM), for inactives: at the highest dose activity change, negative = inhibition, actives largely listed as inhibitors; actives 1.8% (n = 300,000); AID 540276; active = well fitted inhibition curve with a large enough effect; inconclusive = small, poorly fitted or top-dose-only effect, or effect the other way; inactive = flat fitted curve, though single readings scatter; tested in HEK293 cells; about a fifth of its hits are not listed in these tables; note: % is set by controls: 0 for no effect and ±100 for the full control effect; luciferase read-out
LASV entry inh: blocks Lassa virus binding to or entry into cells; Lassa virus pseudotype entry inhibition, cell reporter; control for the full effect not named in the record; Potency, µM (series often up to 37.9 µM), for inactives: top-dose activity change, negative = inhibition, usual class: inhibitors; actives 1.2% (n = 300,000); AID 540256; active means well fitted inhibition curve with a large enough effect; inconclusive means small, poorly fitted or top-dose-only effect, or effect the other way; inactive means flat fitted curve, though single readings scatter; tested in HEK293 cells; note: % is set by controls: 0 for no effect and ±100 for the full control effect; nearly all actives have a fitted effect of over 50% in size; luciferase read-out
NS1 inh: blocks influenza NS1 protein function | AID 2326 | Potency, µM (top dose mostly 46.1 µM), inactives show at the highest dose activity, positive = more growth | actives 0.4% (n = 270,000) | S. cerevisiae slowed by influenza A NS1, growth recovery by OD600; active means well fitted rising curve with a large enough effect; inconclusive means small, poorly fitted or top-dose-only effect; inactive means no such curve, though single readings can be large or run the other way; note: nearly all actives have a fitted effect of over 50% in size
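Recovery from NS1-induced slow growth read by OD600 in budding yeast switched to galactose assay medium (pH 6.0, -URA) at 1:100 dilution. Compound 23 nl per well; the matching strain lacking NS1 serves as control.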
RE007 growth inh: less growth of the S. pombe RE007 Vpr strain; S. pombe RE007 Vpr strain, BacTiter-Glo ATP luminescence, 24 h; control for the full effect not named in the record; Potency, µM (series often up to 92.2 µM), without a hit: top-dose activity change, negative = less growth; actives 0.21% (n = 360,000); active = well fitted falling curve with a large enough effect; inconclusive = small, poorly fitted or top-dose-only effect; inactive = no such curve, though single readings can be large or run the other way;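 note: % is set by controls: 0 for no effect and ±100 for the full control effect; nearly all actives have a fitted effect of over 50% in size; the assay follows cell death caused by Vpr and the record does not say whether a fall means rescue or toxicity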
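Fission yeast strain RE007, carrying one chromosomally integrated HIV-1 vpr copy, was seeded at OD 0.01 in PMG+AL medium with 23 nL pinned compound. After 24 h at 30 °C and 99% humidity, viability was read by BacTiter-Glo luminescence.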
StopGo reporter: lowers the luciferase signal of an FMDV 2A StopGo reporter | human cells with a luciferase reporter of 2A StopGo recoding; control for the full effect not named in the record | Potency, µM (series often up to 57.9 µM), without a hit: top-dose signal change, negative = less light | actives 1.2% (n = 410,000); active = well fitted falling curve with a large enough effect; inconclusive = small, poorly fitted or top-dose-only effect; inactive = no such curve, though single readings can be large or run the other way; tested in HEK293T cells; note: % is set by controls: 0 for no effect and ±100 for the full control effect; nearly all actives have a fitted effect of over 45% in size; luciferase light after 4 h
SARS PLP yeast: blocks SARS-CoV papain-like protease in a yeast assay; Potency, µM (titrated, usually from 32.9 µM), inactives show at the highest dose activity, positive = growth rescue; S. cerevisiae expressing SARS-CoV PLpro, growth rescue; control for the full effect not named in the record; actives 0.19% (n = 330,000); active means well fitted rising curve with a large enough effect; inconclusive means small, poorly fitted or top-dose-only effect; inactive means no such curve, though single readings can be large or run the other way; note: 0% is about no effect; nearly all actives have a fitted effect of over 55% in size; growth read by luminescence after 48 h
Cruzain noTriton: cruzain (T. cruzi) inhibition without detergent; P25779; purified cruzain, Z-FR-AMC fluorescence, no detergent; Potency, µM, for inactives: max response, negative = inhibition, actives largely listed as inhibitors; actives 2.3% (n = 200,000);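 note: plate controls were enzyme without inhibitor for no effect and buffer without enzyme for full effect; nearly all actives have a fitted effect of over 40% in size; top concentration of the series not given in the record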
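Detergent-free condition (0.00005% Triton X-100) in acetate buffer pH 5.5 with DTT. 1.5 nM enzyme and compound were pre-mixed 15 min, then 2 uM Z-FR-AMC substrate added; reaction progress from fluorescence change between first and third reads (60 s).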
* marks the source's active call; other numbers are inactive results; ? = inconclusive; . = no result given; [ ] = remark or other dose. Unless noted, calls come from the whole dose curve; as a rule, active = well fitted curve in the direction sought with a large enough effect; inconclusive = small, poorly fitted or top-dose-only effect, or another doubt; inactive = no such curve, though single readings can be large; an effect the other way counts as inactive or inconclusive. Potency is the fitted concentration of half-maximal effect.

SMILES	Cruzain Triton	Marburg entry inh	LASV entry inh	NS1 inh	RE007 growth inh	StopGo reporter	SARS PLP yeast	Cruzain noTriton
COCc1nnc(NC(=O)c2ccc(S(=O)(=O)N3CCCCCC3)cc2)o1	2.8%	-28%[46.1 µM]	-12%	-10%	11%	-15%	-2%	5%
CC(=O)Nc1ccc(C(=O)CN2C(=O)NC3(CCOc4ccccc43)C2=O)c(F)c1 (centres undefined)	.	?	-1%	.	19%	-12%	-1%	.
O=C(O)c1cc(N/N=C/c2c[nH]c3ccccc23)ccc1Cl	.	-19%	-21%	10%	-9%	-1%	14%	.
CCOC(=O)C1=C(C)Nc2nc3ccccc3n2C1c1ccncc1 (centres undefined)	-1.8%	-4%	3%	-2%	0%[3.69 µM]	-10%	1%	-1%
COc1cccc(NC(=O)[C@@H](NC(=O)N2CCn3c2nc2ccccc23)C(C)C)c1	.	?	?	1%	-10%	5%	1%	.
Cc1nc(-c2cccc(S(=O)(=O)N3CCC(C(=O)NCc4ccccc4)CC3)c2)no1	-0.5%	.	7%[46.1 µM]	.	.	0%	.	-4%
O=C1NC(=O)C(CC(=O)N(Cc2cccs2)C2(C(=O)NC3CCCCC3)CCCCC2)N1 (centres undefined)	3.5%	-3%	0%	-5%	1%	-18%	0%	-14%
O=C(CN1C(=O)NC(Cc2ccccc2)C1=O)NC(=O)NC1CCCCC1 (centres undefined)	-2.5%	-7%	-3%	0%	2%	-7%	-1%	1%
Cc1ccc(S(=O)(=O)Cn2nnnc2C(C(C)C)N2CCc3ccccc3C2)cc1 (centres undefined)	-11%	?	?	-5%	-4%	.	-3%	2%
Cc1nn(CC(=O)NC(C)CCc2ccccc2)c(=O)c2nn(-c3ccccc3)c(C)c12 (centres undefined)	.	.	.	-5%	-6%	0%	1%	.
COc1ccc(C(=O)NC2CC3CCCC(C2)N3Cc2ccccc2)cc1OC (centres undefined)	.	.	.	-22%	-2%	-13%	3%	.
COc1ccccc1NC(=O)CSc1nnc(-c2nonc2NC(C)=O)n1-c1ccccc1	-4.3%	4%[46.1 µM]	-8%[46.1 µM]	.	.	-6%	.	?

Rewritten with two lines to a compound: part of the list above.
Results follow in this order: Cruzain Triton	Marburg entry inh	LASV entry inh	NS1 inh	RE007 growth inh	StopGo reporter	SARS PLP yeast	Cruzain noTriton
> CCOC(=O)C1=C(C)Nc2nc3ccccc3n2C1c1ccncc1 (centres undefined)
    -1.8%	-4%	3%	-2%	0%[3.69 µM]	-10%	1%	-1%
> COc1cccc(NC(=O)[C@@H](NC(=O)N2CCn3c2nc2ccccc23)C(C)C)c1
    .	?	?	1%	-10%	5%	1%	.
> Cc1nc(-c2cccc(S(=O)(=O)N3CCC(C(=O)NCc4ccccc4)CC3)c2)no1
    -0.5%	.	7%[46.1 µM]	.	.	0%	.	-4%
> O=C1NC(=O)C(CC(=O)N(Cc2cccs2)C2(C(=O)NC3CCCCC3)CCCCC2)N1 (centres undefined)
    3.5%	-3%	0%	-5%	1%	-18%	0%	-14%
> O=C(CN1C(=O)NC(Cc2ccccc2)C1=O)NC(=O)NC1CCCCC1 (centres undefined)
    -2.5%	-7%	-3%	0%	2%	-7%	-1%	1%
> Cc1ccc(S(=O)(=O)Cn2nnnc2C(C(C)C)N2CCc3ccccc3C2)cc1 (centres undefined)
    -11%	?	?	-5%	-4%	.	-3%	2%
> Cc1nn(CC(=O)NC(C)CCc2ccccc2)c(=O)c2nn(-c3ccccc3)c(C)c12 (centres undefined)
    .	.	.	-5%	-6%	0%	1%	.
> COc1ccc(C(=O)NC2CC3CCCC(C2)N3Cc2ccccc2)cc1OC (centres undefined)
    .	.	.	-22%	-2%	-13%	3%	.
> COc1ccccc1NC(=O)CSc1nnc(-c2nonc2NC(C)=O)n1-c1ccccc1
    -4.3%	4%[46.1 µM]	-8%[46.1 µM]	.	.	-6%	.	?

Further compounds.
SMILES	Cruzain Triton	Marburg entry inh	LASV entry inh	NS1 inh	RE007 growth inh	StopGo reporter	SARS PLP yeast	Cruzain noTriton
COc1cc(OC)cc(C(=O)N2CCN(C(=O)c3cccs3)CC2)c1	.	-5%[46.1 µM]	.	1%	2%	2%	-3%	.
CC(=O)Nc1ccc(-c2cc(C(=O)O)c3cc4ccccc4cc3n2)cc1	-0.4%	.	.	-3%	-20%	10%	.	-6%
CC(C)Oc1ccc(C(=O)Nc2ccc(C(F)(F)F)n(C)c2=O)cc1	-7.8%	?	-2%[46.1 µM]	-6%	13%	1%	1%	6%
COc1cccc(Cn2cnc3c(sc4nc(C)cc(C)c43)c2=O)c1	.	10%[46.1 µM]	.	-17%	-1%	21%	-1%	.
CCc1ccc(N2CCn3c2nc2c3c(=O)n(Cc3ccc(F)cc3)c(=O)n2C)cc1	-6.2%	.	-23%[46.1 µM]	.	.	1%	.	-21%
O=C(Nc1ccc(Cl)cc1)N(Cc1nnc2n1CCCCC2)c1ccccc1	-0.4%	-4%	-19%	-1%	0%	12%	2%	0%
CCC(C)N1Cc2ccccc2C1=N (centres undefined)	2.4%	4%	-8%	3%	4%	.	2%	-4%
COc1cc(OC)cc(C(=O)Nc2nc(-c3nnn(-c4ccc(F)c(Cl)c4)c3C)ns2)c1	1.8%	.	-11%[46.1 µM]	.	.	-25%	.	?
CCOC(=O)C1=NNC(C(=O)c2ccc(C)cc2)C1c1ccc(OC)cc1 (centres undefined)	-2.5%	?	-16%	-3%	1%	-15%	7%	-12%
CCN1C(=O)CC(N2CCC(Cc3ccccc3)CC2)C1=O (centres undefined)	5.0%	22%	-2%	-2%	-24%	6%	-13%	11%
COc1cccc(CC(=O)NCC2(N3CCCCC3)CCCCC2)c1	.	-26%	0%	.	-6%	-4%	-3%	.
Cc1cc(C)c(C#N)c(N2CCN(S(=O)(=O)Cc3ccccc3)CC2)n1	.	7%[46.1 µM]	-4%[46.1 µM]	3%	8%	-4%	-5%	.
COc1ccc(C2CC3(CC(C)(C)NC(SC)=N3)Oc3cc(O)cc(C)c32)cc1 (centres undefined)	-3.0%	10µM*	18µM*	-7%	12%	-25%	-10%	-4%
CCN(CCNC(=O)Cn1cc2c(n1)CCCC2)c1ccccc1	-7.4%	.	.	5%	-2%	-24%	0%	10%
C=CCn1c(SCc2ccc(C(=O)NCCO)cc2)nc2sc(C)c(C)c2c1=O	.	?	3%	.	0%	?	-5%	.
O=C(Nc1ccc(S(=O)(=O)N2CCCC2)cc1)c1c(F)cccc1F	.	.	.	-4%	9%	48%[activator]	-1%	.
COc1ccc(-c2noc(C3CCCN(C(=O)c4ccccc4OC)C3)n2)cc1OC (centres undefined)	1.6%	?	-2%	-60%	9%	?	-8%	?
COC(=O)CCC(=O)N(CCN(Cc1ccccc1)C(=O)CCC(=O)OC)Cc1ccccc1	.	-23%[46.1 µM]	-7%[46.1 µM]	.	5%	2%	.	.
O=C(NCc1ccc2c(c1)OCO2)c1cccc(N2CCCC2=O)c1	1.7%	-5%[46.1 µM]	-7%	-4%	-7%	-17%	-7%	-4%
CCCc1c(C)c2ccc(O)c(CN3CCN(c4ccc(F)cc4)CC3)c2oc1=O	-2.2%	1%[46.1 µM]	-6%[46.1 µM]	.	.	?	.	5%
N#Cc1ccc(NC(=O)C2Cc3ccccc3CN2S(=O)(=O)c2ccc(F)cc2)cc1 (centres undefined)	-7.0%	-20%[46.1 µM]	-28%[46.1 µM]	.	.	-23%	.	-22%
COc1ccc(-n2nc3c(c2NC(=O)C(C)C)CSC3)cc1	.	.	.	-15%	-9%	-9%	-5%	.
O=C(Nc1cccc(N2C(=O)C3CCCCC3C2=O)c1)c1ccccc1 (centres undefined)	.	.	.	10%	3%	-25%	-5%	.
CC(C)(C)C(=O)N1CCC(O)(CS(=O)(=O)Cc2ccccc2Cl)CC1	-0.7%	2%	2%	2%	8%	14%	7%	-2%
COc1cc(C2c3c(oc4ccccc4c3=O)C(=O)N2c2nc(C)c(C)s2)ccc1O (centres undefined)	0.5%	-12%[46.1 µM]	22%[46.1 µM]	.	.	-11%	.	-4%
O=C(NCc1ccncc1)c1cc(F)c(F)cc1Cl	.	-9%[46.1 µM]	2%[46.1 µM]	-1%	8%	-7%	0%	.
Cc1c(C=O)c(Cl)n(C)c(=O)c1C#N	.	?	-13%	.	2%	-3%	0%	.
Cn1cc(-c2cc3n(n2)CCC(=O)N3CCCC(=O)Nc2ccccc2F)c2ccccc21	-3.2%	.	-1%[46.1 µM]	.	.	-22%	.	?
O=c1oc2ccccc2n1Cc1cccc(Cl)c1	.	.	.	0%	?	-2%	0%	.
O=C(c1ccc(Cl)c(S(=O)(=O)N2CCCC2)c1)N1CCCC(C(F)(F)F)C1 (centres undefined)	.	-8%	-8%	.	?	-11%	2%	.
CCOc1ccc(CN2CCN(CC3CC3)CC2CCO)cc1 (centres undefined)	.	.	.	4%	-7%	1%	1%	.
O=C(CCC1N=C2c3ccccc3N=C(SCc3ccccc3F)N2C1=O)NCCc1ccccc1 (centres undefined)	0.5%	.	6%[46.1 µM]	.	.	-7%	.	7%
O=C(OCC(=O)N1CCCC1=O)c1nc(Cl)ccc1Cl	.	?	-25%	.	-1%	-10%	.	.
CCC(C)NC(=O)/C(=C/c1ccco1)c1ccccc1 (centres undefined)	-8.4%	-25%	21%	16%	-25%	-18%	3%	-3%
O=C1CCCN1CCC1CCN(C2CC(=O)N(c3ccc(Cl)cc3)C2=O)CC1 (centres undefined)	1.2%	9%	-3%	-197%	5µM*	.	.	10%
COC(=O)C1=C(c2cccc(OCc3ccccc3)c2)C[C@@H]2CC[C@H]1N2C(=O)NCc1ccc(OC)c(OC)c1	.	2%	.	.	0%	-18%	-4%	.

Source: PubChem BioAssay
